Ecoli rRNA inh = inhibitors of bacterial rRNA selective over humanized ribosomes. E. coli WT GFP vs humanized-ribosome RFP mutants, fluorescence, 24 h; stronger effect = lower value; DMSO median 0, no signal -100. GFP signal change (wild-type ribosome), % (test concentration not listed). 350,000 compounds, 1.6% hits. AID 720706;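 active = significant combined selectivity score with lowered wild-type GFP, culture density cut under 30%, mutant RFP and density less affected; inactive = any of these conditions unmet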; also: one replicate is shown; some compounds called inactive have numbers as strong as hits
Ecoli rRNA inh OD600 = also measured in Ecoli rRNA inh; calls as there; OD600 change, %; measured here: OD600 growth;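 optical density of the mix in the first replicate; 0 = DMSO median and -100 = no signal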
Ecoli rRNA inh RFP = recorded beside Ecoli rRNA inh, whose call it bears; RFP signal change, %; measured here: RFP humanized mutant strains;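 first replicate; 0 = DMSO median and -100 = no signal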
The depositor's hits bear a star; & = joins results of further samples; ! = not active in a repeat. A portion of the library (hit frequency here may not be typical).

mol	Ecoli rRNA inh	Ecoli rRNA inh OD600	Ecoli rRNA inh RFP
Cc1ccc(C2NC(=O)c3[nH]nc(-c4ccccc4)c32)cc1 (stereo unspecified)	-19*	-8.4*	3.5*
O=C(Nc1cccc(Cl)c1)N[C@H]1CC[C@@H](CCNC(=O)C2CC2)O[C@@H]1CO	-3	0	-0.8
COCC(=O)N1CC(=O)N2[C@@H](CO)[C@@H](c3ccc(-c4cccnc4)cc3)[C@@H]2C1	2	3	-2.4
CC(=O)N(C)C[C@@H]1Oc2ncc(-c3cccnc3)cc2C(=O)N([C@H](C)CO)C[C@H]1C	0	5	-0.8
CCS(=O)(=O)N1CCC2(CC1)CN(S(=O)(=O)c1cccc(OC)c1)[C@@H](CO)c1[nH]c3cc(OC)ccc3c12	-6	-10	-0.4
COc1ccc(CNC(=O)N(C)C[C@@H]2OCc3ccccc3-c3c(n(C)c4ccccc34)C(=O)N([C@@H](C)CO)C[C@@H]2C)cc1	-19*!	-13*!	5.1*!
C[C@@H]1CCCCO[C@H](CN(C)C(=O)Cc2ccccc2)[C@@H](C)CN([C@@H](C)CO)C(=O)c2cc(NS(=O)(=O)c3ccc(Cl)cc3)ccc2O1	-1	-3	0.3
CC(Sc1nnc(-c2ccccc2F)n1C)C(=O)Nc1ccc(N2CCOCC2)cc1 (stereo unspecified)	6	6	1.5
C[C@H](CO)N1C[C@H](C)[C@@H](CN(C)C(=O)Nc2ccc(C(F)(F)F)cc2)Oc2ccc(NS(=O)(=O)c3ccc(Cl)cc3)cc2C1=O	0	5	-2.5
C[C@H](CO)N1C[C@H](C)[C@H](CN(C)C(=O)Nc2ccc(F)cc2)Oc2ccc(NC(=O)NC3CCCCC3)cc2C1=O	-2	-2	-0.6
Cc1cccc(OCc2nnc(SCC(=O)NCc3ccc4c(c3)OCO4)o2)c1	3	-10	4.2
COC1CC(NC(C)=O)C(OC(=O)c2ccccc2)C(CBr)O1 (stereo unspecified)	1	7	-0.2
CCCCN1C[C@H](C)[C@@H](CC(=O)NC)C1=O	5	7	-2.1
O=C(Nc1ccc2c(c1)OCCO2)C1C(c2ccccc2)=Nc2ccccc2N1C(=O)c1cccnc1 (stereo unspecified)	-8.2*	-3.3*	1.4*
C[C@H]1CN([C@@H](C)CO)C(=O)c2c(c3ccccc3n2C)-c2ccccc2CO[C@H]1CN(C)C(=O)[C@@H]1CCCN1C	5&0	12&1	4.8&-0.1
C[C@@H]1CN([C@H](C)CO)S(=O)(=O)c2ccc(C#Cc3cccc(F)c3)cc2O[C@@H]1CN(C)CC1CC1	-13	-25	19
COCCNC(=O)C[C@@H]1CC[C@@H]2[C@H](COC[C@@H](O)CN2S(=O)(=O)c2ccccc2C)O1	0	4	0.9
CCS(=O)(=O)NCC[C@@H]1CC[C@@H](NC(=O)C2CCCC2)[C@@H](CO)O1	-1	1	-0.2
COc1cc2c(cc1OC)[C@@]1(c3ccccc3)CCCC[C@H]1[C@@H]2NC(=O)C(F)(F)F	11	18	-2.6
CCc1nc2ccc(C(=O)Nc3cccc(OC)c3)cn2c1N(CC)CCN(C)C	9	20	-0.5
COc1ccc(NC(=O)N(C)C[C@H]2OCCCC[C@@H](C)Oc3ccc(NC(=O)Nc4cccc5ccccc45)cc3C(=O)N([C@@H](C)CO)C[C@H]2C)cc1	-4	1	-1.1
COc1cccc(C(=O)Nc2ccc3c(c2)C(=O)N(C)C[C@H](OC)[C@H](C)CN(C(=O)C2CCCC2)[C@@H](C)CO3)c1	-3	0	1.9
CC(Nc1ccc(Br)cc1)C(=O)NC(=O)NC1CCCCC1 (stereo unspecified)	-37	-42	-6.2
C[C@H](CO)N1C[C@H](C)[C@H](CN(C)C(=O)Nc2ccccc2)Oc2ccc(NS(=O)(=O)c3ccc(F)cc3)cc2CC1=O	0	4	0.2
CC=Cc1ccc2n(c1=O)C[C@H]1[C@H](CO)[C@@H](C(=O)Nc3ccc(-c4ccccc4)cc3)[C@@H]2N1C (mixture of isomers)	-6	-19	14
COc1ccc(S(=O)(=O)Nc2ccc3c(c2)C(=O)N([C@H](C)CO)C[C@H](C)[C@H](CN(C)Cc2ccc(C(=O)O)cc2)OCCCC[C@@H](C)O3)cc1	8	12	-1.0
COC(=O)CN1C(=O)COc2ccc(S(=O)(=O)N3CCCCC3)cc21	2	3	4.0
C[C@H](CO)N1C[C@H](C)[C@@H](CN(C)C(=O)c2ccccn2)Oc2ncc(-c3ccc(F)cc3)cc2C1=O	-3	1	-2.0
COc1ccc(CNC(=O)C[C@@H]2C[C@@H]3c4cc(NC(=O)CC5CC5)ccc4O[C@@H]3[C@@H](CO)O2)cc1	1	2	2.2
C[C@H]1CN([C@@H](C)CO)C(=O)c2cccc(NC(=O)C3CCCCC3)c2O[C@@H]1CN(C)Cc1ccncc1	-5	-3	2.3
COc1ccc(NC(=O)Nc2cccc3c2O[C@@H](CN(C)C(=O)Nc2c(C)noc2C)[C@@H](C)CN([C@H](C)CO)C3=O)cc1	0	1	0.7
COc1ccccc1NC(=O)Nc1ccc2c(c1)C(=O)N(C)C[C@@H](OC)[C@@H](C)CN[C@H](C)CO2	2	1	-1.4
CCCNC(=O)C[C@@H]1CC[C@H]2[C@@H](COc3ccc(NS(=O)(=O)CC)cc3C(=O)N2C)O1	4	1	-2.7
COc1ccccc1NC(=O)N[C@@H]1CC[C@@H](CC(=O)N[C@@H](C)c2ccccc2)O[C@H]1CO	3	5	0.1
C[C@@H]1CN([C@H](C)CO)C(=O)c2cc(NC(=O)Nc3ccccc3)ccc2O[C@H]1CN(C)S(=O)(=O)c1ccccc1	-2	5	-0.8
O=C(C[C@@H]1C[C@H]2c3cc(NC(=O)NC4CCCC4)ccc3O[C@H]2[C@H](CO)O1)NCc1ccc(Oc2ccccc2)cc1	0	-22	5.9
C[C@@H]1CCCCO[C@@H](CN(C)C(=O)Nc2ccc(F)cc2)[C@@H](C)CN([C@H](C)CO)C(=O)c2cc(NC(=O)CCCN(C)C)ccc2O1	5	12	-0.5
C[C@H](CO)N1C[C@H](C)[C@H](CN(C)S(C)(=O)=O)Oc2cc(-c3ccncc3)ccc2S1(=O)=O	3	0	-0.7
CN(C)C(=O)c1ccc(-c2ccc3c(c2)[C@@H]2[C@@H](CCN2C(=O)Cc2ccccn2)[C@@H](CO)N3C)cc1	-1	16	-2.6
COc1cccc(NC(=O)N2[C@H](CO)[C@H](c3ccccc3)[C@@H]2CNC(C)C)c1	5	2	0.1
COc1cccc(S(=O)(=O)Nc2ccc3c(c2)[C@@H]2C[C@@H](CC(=O)NCc4cccc(F)c4)O[C@H](CO)[C@@H]2O3)c1	1	-16	1.8
CCCNC(=O)N1[C@@H]2CNC[C@H]1C2c1ccc(-c2cccnc2)cc1 (stereo partly specified)	7&5	12&-1	-4.1&-1.4
CCCN1C[C@@H](C)[C@H](OC)CN(C)C(=O)c2cc(NC(=O)c3ccc(F)cc3)ccc2OC[C@H]1C	-5	-1	2.4
C[C@@H]1CN([C@H](C)CO)C(=O)c2cc(/C=C/c3ccccc3)cnc2O[C@@H]1CN(C)C(=O)Nc1ccc(C(F)(F)F)cc1	0	5	2.4
COc1ccc(NC(=O)Nc2ccc3c(c2)CC(=O)N([C@@H](C)CO)C[C@H](C)[C@H](CN(C)C)O3)cc1	1	10	-1.6
CC(=O)NC(C)(c1ccccc1)c1nc(-c2cccc3cccnc23)cs1 (stereo unspecified)	-5	-31	1.2
O=C(C[C@@H]1C[C@H]2c3cc(NC(=O)CC4CC4)ccc3O[C@H]2[C@H](CO)O1)NCc1ccc2c(c1)OCO2	-2	0	0.7
C[C@@H]1CCCCO[C@@H](CN(C)S(=O)(=O)c2cn(C)cn2)[C@H](C)CN([C@H](C)CO)C(=O)c2cc(NC(=O)Nc3ccc4c(c3)OCO4)ccc2O1	0	4	-1.8

A section from further up:
mol	Ecoli rRNA inh	Ecoli rRNA inh OD600	Ecoli rRNA inh RFP
Cc1ccc(C2NC(=O)c3[nH]nc(-c4ccccc4)c32)cc1 (stereo unspecified)	-19*	-8.4*	3.5*
O=C(Nc1cccc(Cl)c1)N[C@H]1CC[C@@H](CCNC(=O)C2CC2)O[C@@H]1CO	-3	0	-0.8
COCC(=O)N1CC(=O)N2[C@@H](CO)[C@@H](c3ccc(-c4cccnc4)cc3)[C@@H]2C1	2	3	-2.4
CC(=O)N(C)C[C@@H]1Oc2ncc(-c3cccnc3)cc2C(=O)N([C@H](C)CO)C[C@H]1C	0	5	-0.8
CCS(=O)(=O)N1CCC2(CC1)CN(S(=O)(=O)c1cccc(OC)c1)[C@@H](CO)c1[nH]c3cc(OC)ccc3c12	-6	-10	-0.4
COc1ccc(CNC(=O)N(C)C[C@@H]2OCc3ccccc3-c3c(n(C)c4ccccc34)C(=O)N([C@@H](C)CO)C[C@@H]2C)cc1	-19*!	-13*!	5.1*!
C[C@@H]1CCCCO[C@H](CN(C)C(=O)Cc2ccccc2)[C@@H](C)CN([C@@H](C)CO)C(=O)c2cc(NS(=O)(=O)c3ccc(Cl)cc3)ccc2O1	-1	-3	0.3

Going on with the list:
mol	Ecoli rRNA inh	Ecoli rRNA inh OD600	Ecoli rRNA inh RFP
COCC#Cc1ccc([C@@H]2[C@@H](CO)N3CCCCN(C(=O)CN(C)C)C[C@H]23)cc1	4	12	-0.3
Cc1cccc(C)c1NC(=O)C(C1CC1)n1c(=O)c(-c2ccco2)nc2ccccc21 (stereo unspecified)	5	13	-0.9
CN1C(=O)c2cc(NC(=O)Cc3cccs3)ccc2OC[C@H]2O[C@H](CC(=O)N[C@H]3CCN(Cc4ccccc4)C3)CC[C@H]21	1	-2	-2.2
CC(C)NC(=O)N(C)C[C@@H]1Oc2ccc(NS(C)(=O)=O)cc2CC(=O)N([C@@H](C)CO)C[C@@H]1C	8	11	-1.9
Nc1nc2ncccc2cc1C(=O)NC1CCCCC1	9	2	-3.0
C[C@H](CO)N1C[C@H](C)[C@H](CN(C)CC2CCCCC2)Oc2ccc(NC(=O)Nc3ccc4c(c3)OCO4)cc2CC1=O	1	6	5.3
CC(C)NC(=O)Nc1ccc2c(c1)C(=O)N([C@H](C)CO)C[C@@H](C)[C@H](CN(C)CC1CCCCC1)OCCCC[C@H](C)O2	1	7	-4.0
O=C(Cc1ccccn1)NCC[C@@H]1CC[C@H](NS(=O)(=O)c2ccccc2)[C@H](CO)O1	0	5	2.5
Cc1ccc(S(=O)(=O)Nc2ccc3c(c2)CC(=O)N([C@H](C)CO)C[C@H](C)[C@H](CN(C)S(C)(=O)=O)O3)cc1	2	15	-0.9
COc1ccccc1CNC(=O)C[C@H]1C[C@@H]2c3cc(NC(=O)c4cccnc4)ccc3O[C@@H]2[C@H](CO)O1	-4	0	-2.0
CNC[C@@H]1Oc2cc(C#CC3CCCCC3)ccc2S(=O)(=O)N([C@@H](C)CO)C[C@H]1C	6	6	-3.9
CN1CCN(C(=O)C[C@@H]2CC[C@H]3[C@@H](COC[C@H](O)CN3Cc3cccc(Cl)c3)O2)CC1	-1	-1	-0.4
COc1ccc([C@H]2C/C=C\C[C@H](c3ccc4c(c3)OCO4)NC(=O)CCC(=O)N2)c(OC)c1	-3	3	-2.4
O=C(NCCN1CCCC1)[C@@H]1[C@@H](CO)[C@@H]2Cn3c(cccc3=O)[C@H]1N2C(=O)c1ccccc1	6	10	-1.1
C[C@H](CO)N1C[C@H](C)[C@H](CN(C)S(=O)(=O)c2ccccc2)Oc2c(NC(=O)CCCCCC(=O)Nc3ccccc3N)cccc2C1=O	-5	-4	-2.3
C[C@H](O)C#Cc1ccc([C@@H]2[C@@H](CO)N3CCCCN(C(=O)c4ccc5c(c4)OCO5)C[C@@H]23)cc1	-4	6	-1.0
N#C[C@H]1[C@@H](c2ccc(C3=CCCCC3)cc2)[C@@H](CO)N1S(=O)(=O)c1cccc(F)c1	2	-4	0.5
O=C(C[C@@H]1C=C[C@H](NS(=O)(=O)c2cccc(F)c2)[C@@H](CO)O1)NCc1ccc2c(c1)OCO2	3	4	-0.1
C[C@@H]1CN([C@H](C)CO)S(=O)(=O)c2ccc(C#CC3CCCC3)cc2O[C@H]1CN(C)C(=O)Nc1cc(F)ccc1F	2	2	1.6
Cc1ccccc1S(=O)(=O)N1CC(=O)N2[C@@H](CO)[C@H](c3ccc(C#CCC(C)C)cc3)[C@@H]2C1	-1	-15	2.8
CC(=O)c1ccc(-c2cnc3c(NC=O)cc(-c4ccc(C(=O)NC5CC5)cc4)cn23)cc1	1	5	3.7
N#C[C@H]1[C@@H](c2ccc(C#CC3CCCCC3)cc2)[C@@H](CO)N1S(=O)(=O)Cc1ccccc1	3	-4	-2.0
COc1cc(CNC(=O)c2cc(-c3cc(OC)ccc3Cl)n[nH]2)cc(OC)c1	-9	-22	-4.5
CN(C)C(=O)C[C@H]1C[C@H]2c3cc(NC(=O)Nc4ccccc4)ccc3O[C@H]2[C@H](CO)O1	-5	-7	-3.8
O=C(O)CC(c1ccccc1)c1ccc2c(c1)OCO2 (stereo unspecified)	0	5	-1.1
O=C(c1ccccc1)N1CC(=O)N2[C@H](C1)[C@@H](c1ccc(C3=CCCC3)cc1)[C@@H]2CO	-2	-16	9.8
CC1=CC(C)C(=O)N(CCN2CCOCC2)C(C)=C1 (stereo unspecified)	16	7	-1.0
C[C@@H]1CN([C@H](C)CO)C(=O)c2cccc(N(C)C)c2O[C@@H]1CN(C)S(C)(=O)=O	0	-10	0.7

From PubChem
